# Screening results as filed in PubChem.
# PINK1 modulator – PINK1 expression modulation; PINK1 immunofluorescence, high-content cytometry, 24 h; Potency, µM (series often up to 76.6 µM), for the others: top-dose activation (PINK1 increase), actives largely listed as activators; AID 624263; hit rate 0.2% among 410,000; active = well fitted activation curve with a large enough effect; inconclusive = small, poorly fitted or top-dose-only effect; inactive = flat fitted curve, though single readings scatter; cell line not stated here;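 further: potency means the concentration at half of the fitted maximal effect; % of control where 0% means no effect; nearly all actives have a fitted effect of over 65% in size; a mitochondrial uncoupler was the plate control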
#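 Fluorescence from anti-PINK1 antibody, together with nuclear and cell stains, was scanned on a laser-scanning cytometer. Before staining, stable-line cells were incubated 24 hours with compounds at 5 concentrations; primary antibody 12 h at 10 degrees C.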
# D2 potentiator – human D2 receptor positive allosteric modulation; P14416; DiscoveRx D2 beta-arrestin cells, luminescence, 90 min; 100% = 57 uM dopamine signal; potentiation, % (no concentration beside the values); hit rate 0.23% among 360,000; AID 624464; active = potentiation of 50% or more; inconclusive = 30% to 50%; inactive = 30% or less;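 further: compound concentration not given in the record; tested on top of an EC20 dose of dopamine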
# Target sequence (P14416 whole entry, looked up): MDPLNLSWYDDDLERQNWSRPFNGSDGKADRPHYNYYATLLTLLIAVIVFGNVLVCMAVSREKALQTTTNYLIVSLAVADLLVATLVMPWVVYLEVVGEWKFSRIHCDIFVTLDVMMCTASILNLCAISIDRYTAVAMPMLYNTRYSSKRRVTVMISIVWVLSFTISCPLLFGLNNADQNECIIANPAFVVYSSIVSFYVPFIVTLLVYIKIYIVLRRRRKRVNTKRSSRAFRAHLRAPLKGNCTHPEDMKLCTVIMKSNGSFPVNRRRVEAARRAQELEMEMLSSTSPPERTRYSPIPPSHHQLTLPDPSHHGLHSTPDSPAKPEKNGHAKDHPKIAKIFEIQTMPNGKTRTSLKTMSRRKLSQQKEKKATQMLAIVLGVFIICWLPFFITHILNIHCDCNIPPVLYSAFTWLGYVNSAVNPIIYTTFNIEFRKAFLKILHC
#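 PathHunter beta-arrestin assay in DiscoveRx D2 cells. Compounds were added with an EC20 of dopamine (50 nM final) for 90 min at 37 deg C. Luminescence was read 1 h after detection reagent, with 57 uM dopamine as the EC100 control.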
# D2 agonist – agonists of human D2 dopamine receptor (beta-arrestin). activation, % (concentration not given with the values). DiscoveRx PathHunter D2 beta-arrestin, luminescence, 90 min; 100% = 57 uM dopamine signal. P14416. hit rate 0.084% among 360,000; in the data active = activation above about 40%; inconclusive = about 15% to 40%; inactive = below about 15%; further: compound concentration not given in the record; the text of the record calls up to 30% inactive
#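 Agonist mode: compounds alone added to overnight-plated D2 PathHunter cells for 90 min at 37 C, with 57 uM final dopamine (EC100) defining full response. Beta-arrestin recruitment detected by chemiluminescent reagent, read after 1 h at ambient temperature.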
# TRPML1 blocker – human mucolipin-1 channel inhibition; AID 624415; activity change, negative = inhibition, % (no concentration beside the values); TRPML1-inducible cells, Ca2+ dye fluorescence, FDSS; active compounds read low; inhibition of EC80 agonist-evoked calcium signal; hit rate 0.02% among 390,000; in the data active means activity change below about -50%; inconclusive means about -30% to -50%; inactive means above about -30%;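 further: stimulus is agonist 54-4 at its EC80 concentration; on the % scale 0 is the no-effect control and ±100 the full control effect; compound concentration not given in the record; the text of the record puts the active cut at -80%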
# Target sequence (Q9GZU1 whole entry, looked up): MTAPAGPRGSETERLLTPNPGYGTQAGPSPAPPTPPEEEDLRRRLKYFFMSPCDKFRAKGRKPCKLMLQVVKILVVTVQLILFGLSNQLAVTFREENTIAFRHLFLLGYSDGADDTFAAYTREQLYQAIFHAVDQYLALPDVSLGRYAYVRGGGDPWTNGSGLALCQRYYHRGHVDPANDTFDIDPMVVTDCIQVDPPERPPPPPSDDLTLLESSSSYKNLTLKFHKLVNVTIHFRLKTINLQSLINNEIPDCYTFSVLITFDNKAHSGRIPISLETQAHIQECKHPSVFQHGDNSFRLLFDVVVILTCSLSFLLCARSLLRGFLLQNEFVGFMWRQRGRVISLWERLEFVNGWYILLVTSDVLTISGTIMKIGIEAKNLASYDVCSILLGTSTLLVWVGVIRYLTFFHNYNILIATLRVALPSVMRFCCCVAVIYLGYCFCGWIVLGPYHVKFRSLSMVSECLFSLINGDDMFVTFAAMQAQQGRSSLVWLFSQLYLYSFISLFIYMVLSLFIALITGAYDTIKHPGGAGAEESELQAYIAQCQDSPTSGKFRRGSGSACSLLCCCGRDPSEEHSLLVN
#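 Tet-induced TRPML1-DL cells loaded with Ca8 no-wash calcium dye were read kinetically on FDSS. Compound addition was followed by EC80 agonist 54-4 (4 uM final); inhibition was read over 110 s.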
# TRPML1 ag – human mucolipin-1 channel agonism | TRPML1-expressing cells, Ca2+ dye fluorescence, FDSS; host cell line not named in the record; reference of the full effect not given here | activation, % (no concentration beside the values) | hit rate 0.12% among 410,000; in the data active = activation above about 50%; inconclusive = about 30% to 50%; inactive = below about 30%; further: 0% is about no effect; the text of the record puts the active cut at 80%
#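 Cells: TRPML1-DL, 1X Tet inducer, ~16 h at 37 degrees C/5% CO2. Dye: ABD Ca8 no-wash + quencher, 45-90 min RT. Read: 10 s baseline, compound add, 110 s agonist phase; 54-4 EC80 (4uM final), 110 s antagonist phase.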
# Six1-Eya2 inh – Six1/Eya2 interaction inhibition; activity change, % (test concentration not listed); hit rate 0.56% among 360,000; AlphaScreen GST-Six1/His-Eya2 binding, biochemical; active compounds read low; control for the full effect not named in the record; Q15475+O00167; in the data active = activity change below about -65%; inconclusive = about -30% to -65%; inactive = above about -30%; further: on the % scale 0 is the no-effect control and ±100 the full control effect
#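 AlphaScreen with GST-Six1 and His-Eya2 (5X mix: 250 nM and 500 nM), glutathione donor and nickel acceptor beads; buffer 50 mM Tris pH 8.0, 300 mM NaCl, 1 mM TCEP; 1 h at 37 C in the dark.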
# The depositor's hits bear a star; ? = inconclusive; · = no result given; [ ] = remark or other dose.
entry	Compound	PINK1 modulator	D2 potentiator	D2 agonist	TRPML1 blocker	TRPML1 ag	Six1-Eya2 inh
1	Cc1cccc(NC(=O)c2sc(-n3nc(C)c(Cc4ccc5c(c4)OCO5)c3C)nc2C)c1C	-1.4%	·	·	17	0.5	·
2	CCCCC1=NN2C(=N)CC(=O)N=C2S1	2.4%	17	-0.8	3	0.0	-7
3	Nc1nc(Nc2cccc(F)c2)nc(N2CCOCC2)c1[N+](=O)[O-]	5.1%	-10	3.7	18	2.1	-14
4	CC(=O)Oc1ccc(-c2ccc(C(=O)OCC(=O)c3c(N)n(C)c(=O)n(C)c3=O)cc2)cc1	8.1%	-1	-2.3	-2	-0.5	-13
5	COc1ccc(/C=C(/NC(=O)/C=C/c2ccccc2)C(=O)O)cc1	-0.4%	-5	-1.6	16	-0.7	8
6	O=C(c1ccc(S(=O)(=O)N2CCCC2)cc1)N1CCN(c2ccccc2)CC1	0.5%	-5	1.1	9	-0.3	-4
7	CN1CCN(C(=O)CNC(=O)c2cccs2)CC1	0.7%	-13	-1.3	-6	0.4	4
8	C[C@H]1CN([C@@H](C)CO)S(=O)(=O)c2ccc(-c3ccc(C#N)cc3)cc2O[C@H]1CN(C)C(=O)CN(C)C	1.2%	-6	-5.3	3	0.0	1
9	CCN(CC)S(=O)(=O)c1ccc(N2C(=O)CC2(/C=C/c2ccccc2)C(=O)NC2CCCC2)cc1 (stereo unspecified)	8.6%	-9	4.9	42	0.8	4
10	COc1cc(CNc2nc3ccccc3[nH]2)cc(OC)c1OC	20%[38.3 µM]	-22	-1.2	6	-0.2	3
11	Cc1ccc(Cn2c(=O)c3c(nc4n3CCN4c3cc(C)cc(C)c3)n(C)c2=O)cc1	-1.0%	·	·	7	-0.8	·
12	O=[N+]([O-])c1ccc2oc(/C=C/c3ccc(O)cc3)nc2c1	1.1%	-1	-2.4	0	-0.1	-3
13	COc1ccc(CNC(=O)Cn2cnc3c(OCc4ccccc4)ncnc32)cc1	9.3%	6	-2.1	20	0.1	5
14	O=S(=O)(c1ccccc1)N1N=C(c2ccccc2)CC1c1ccccc1F (stereo unspecified)	3.3%	-11	-5.3	10	0.3	-3
15	CCCC(=O)N1CCC1(C)C(=O)Nc1cccc(F)c1 (stereo unspecified)	2.3%	-2	-6.5	·	-0.5	2
16	COc1ccc(-c2cc3nc[nH]c(=O)c3s2)cc1	-1.3%	-6	-0.6	6	-0.5	-9
17	CCCCN(C(=N)N1CCCCC1)c1nc(C)c([N+](=O)[O-])c(=O)[nH]1	-0.5%	12	-5.7	17	-1.8	6
18	COc1ccc(-c2nn(-c3ccccc3)cc2/C=C2/SC(=S)N(CCCC(=O)O)C2=O)c(C)c1	3.0%	-3	0.9	-9	0.5	-18
19	CCN(CC)c1ccc(/C=C2\SC(=O)N(C(C)C)C2=O)o1	?	0	-10	50	8.6	0
20	O=C(COC(=O)c1ccc(F)cc1F)NC1CC1	3.5%	-3	-3.4	-8	-0.2	4
21	Cc1ccc(OCC(=O)OCC(=O)NC2CCS(=O)(=O)C2)cc1C (stereo unspecified)	0.1%	-8	-2.5	0	0.2	5
22	C(=N\Nc1nc2ccccc2[nH]1)/C1CCCCC1	1.7%	-8	2.8	-7	2.1	-16
23	CCNC(=O)c1sc(=S)n(-c2ccc(C)cc2)c1N	5.2%[38.3 µM]	-7	-1.4	7	0.2	-1
24	CCNCC(=O)N1c2ccccc2CCc2ccc(NC(=O)OC(C)C)cc21	9.8%	-8	-0.5	-24	-0.5	-12

# 3 structures already listed, ordered by heavy-atom count, smallest number first.
entry	Compound	PINK1 modulator	D2 potentiator	D2 agonist	TRPML1 blocker	TRPML1 ag	Six1-Eya2 inh
20	O=C(COC(=O)c1ccc(F)cc1F)NC1CC1	3.5%	-3	-3.4	-8	-0.2	4
19	CCN(CC)c1ccc(/C=C2\SC(=O)N(C(C)C)C2=O)o1	?	0	-10	50	8.6	0
21	Cc1ccc(OCC(=O)OCC(=O)NC2CCS(=O)(=O)C2)cc1C (stereo unspecified)	0.1%	-8	-2.5	0	0.2	5

# 3 compounds out of the list above, ordered by their value in Six1-Eya2 inh, smallest number first.
item	compound	Six1-Eya2 inh
22	C(=N\Nc1nc2ccccc2[nH]1)/C1CCCCC1	-16
19	CCN(CC)c1ccc(/C=C2\SC(=O)N(C(C)C)C2=O)o1	0
21	Cc1ccc(OCC(=O)OCC(=O)NC2CCS(=O)(=O)C2)cc1C (stereo unspecified)	5

# Continued:
entry	Compound	PINK1 modulator	D2 potentiator	D2 agonist	TRPML1 blocker	TRPML1 ag	Six1-Eya2 inh
25	CCn1ccnc1CNC(=O)CC1C(=O)NCCN1Cc1ccc(OC)cc1OC (stereo unspecified)	-1.1%	-2	3.5	-14	0.3	-3
26	COc1ccc(-c2[nH]ncc2CN2CCN(C(=O)c3cccs3)CC2)c(F)c1	-1.3%	11	-2.9	-16	-0.4	6
27	N/C(=N\OC(=O)Cc1ccccc1)c1ccccc1Cl	1.4%	0	?	22	2.0	12
28	COc1ccc(CNC(=O)CN2C(=O)c3ccccc3S2(=O)=O)cc1	16%	-2	-3.7	-4	0.5	-4
29	Cc1ccn2c(=O)nc(SCC(=O)Nc3ccc4c(c3)OCCO4)nc2c1	-6.4%	9	0.3	-2	0.8	-15
30	Cn1c(=O)[nH]c(=O)c2c1nc(N1CCCCC1)n2CCOc1ccccc1	-1.8%	-2	-2.0	28	2.1	2
31	O=C(CSc1nc2ccccc2[nH]1)NCc1ccc(F)cc1	1.9%	-3	-2.5	3	-0.9	-4
32	N#Cc1ccccc1NCc1ccccc1	17%	9	-1.2	-2	-0.8	14
33	COc1ccc(NC(=S)N/C(=N/CS(=O)(=O)c2ccccc2)c2ccccc2)cc1	-6.3%[38.3 µM]	-27	-3.5	7	0.1	4
34	COc1ccccc1NS(=O)(=O)c1cccc(C(=O)N/N=C(\C)c2ccc3c(c2)OCCO3)c1	5.0%	-3	4.5	-11	1.4	4
35	COc1cccc(NC(=O)c2ccc(N3C(=O)C4CC=CCC4C3=O)cc2)c1 (stereo unspecified)	0.3%	-12	-3.2	22	0.8	3
36	Cn1cccc1Cc1nnc(SCC(=O)Nc2ccccc2F)n1-c1ccc(F)cc1	1.0%	-4	-5.7	-4	0.8	-7
37	COc1ccccc1-c1c(C#N)c(N)nc2c1CCC2	0.2%	-2	-5.2	0	-0.6	2
38	COc1ccc2c3c(cccc13)OC2=O	0.1%	-1	0.4	-4	0.5	-2
39	CCc1ccc(N(C(=O)Cc2cccs2)C(C(=O)NC2CCCCC2)c2cn(C)nc2C)cc1 (stereo unspecified)	·	-31	-2.8	7	-0.3	-2
40	Cc1nc(C(F)(F)F)ccc1C(=O)N1CCC1(C)C(=O)NS(=O)(=O)c1ccccc1 (stereo unspecified)	-0.2%	-7	-2.6	-19	0.4	8
41	COc1ccc(CNC(=O)CN(C)S(=O)(=O)c2ccc3[nH]c4c(c3c2)CCCC4)cc1	-0.1%	·	·	49	3.7	·
42	CN(C)c1nc(NN)nc(Nc2ccc(F)cc2)n1	-0.9%	-11	-7.4	6	-1.3	-16
43	C/C(=N\Nc1ccc(S(=O)(=O)N2CCCCC2)cn1)c1ccc(O)cc1	2.5%	-13	5.3	-4	1.2	?
44	O=C(Nc1cccc(F)c1)N1CCCCCC1	-0.1%	-5	-0.9	-1	-0.3	4
45	CCOC(=O)c1cc(-c2ccccc2)sc1NC(=O)c1ccc(OC)c(OC)c1	6.6%	-3	-3.1	4	0.0	2
46	COCCCNC(=O)c1cc(C(=O)c2c(-c3c(Cl)cccc3Cl)noc2C)c[nH]1	7.4%	-3	-1.2	11	0.1	2
47	Cc1cc(NC(=O)CCC(=O)N(CC(=O)NC2CCCC2)c2ccc(Cl)cc2)no1	-2.1%	-6	-1.6	-7	-0.8	5
48	Cc1ccc(CCNC(=O)c2ccc3c(c2)N(Cc2ccccc2F)C(=O)c2ccccc2S3=O)cc1 (stereo unspecified)	-0.7%	·	·	12	-0.5	·
49	O=C(CCC1CCCCC1)NCCS(=O)(=O)N1CCN(c2ccccc2F)CC1	7.9%	-15	-0.1	12	1.5	9
50	COc1ccc(C(=O)Nc2nnc(S(=O)(=O)N3CCCc4ccccc43)s2)cc1	-1.3%	·	·	-3	1.3	·
51	Clc1ccc(CSc2nnc(Cn3cnc4ccccc43)o2)cc1	-0.3%	-14	0.5	8	2.5	17
52	CCCCCn1c(=O)[nH]c2cc(C(=O)N3CCN(c4cc(Cl)ccc4C)CC3)ccc2c1=O	1.1%	·	·	26	-0.2	·
53	O=C(N/N=C/c1ccccc1Cl)c1ccc(F)cc1	6.4%[38.3 µM]	-13	-0.7	9	0.8	2
54	Cc1ccc(S(=O)(=O)N(C)C)cc1NC(=S)NC12CC3CC(CC(C3)C1)C2	?	-8	-3.3	7	2.7	-10
55	Cc1ccc(CSc2nnc(SCC(=O)N/N=C/c3c(C)nn(-c4ccccc4)c3C)s2)cc1	0.4%	2	-2.0	8	0.2	-20
56	COc1ccc(CCN(C(=O)c2cccc(F)c2)C2CC(=O)N(c3ccccc3)C2=O)cc1 (stereo unspecified)	-0.8%	-15	-0.4	-9	0.8	3

# Only PINK1 modulator and D2 potentiator, for some of the entries so far:
No.	mol	PINK1 modulator	D2 potentiator
55	Cc1ccc(CSc2nnc(SCC(=O)N/N=C/c3c(C)nn(-c4ccccc4)c3C)s2)cc1	0.4%	2
56	COc1ccc(CCN(C(=O)c2cccc(F)c2)C2CC(=O)N(c3ccccc3)C2=O)cc1 (stereo unspecified)	-0.8%	-15

# Other structures follow:
entry	Compound	PINK1 modulator	D2 potentiator	D2 agonist	TRPML1 blocker	TRPML1 ag	Six1-Eya2 inh
57	COc1c(F)c(F)c(C(=O)Nc2ccccc2N2CCN(C(=O)C(C)C)CC2)c(F)c1F	0.1%	3	-2.5	27	-1.1	6
58	COc1ccc(CN2CCNC(=O)C2CC(=O)NCc2csc(C)n2)c(F)c1 (stereo unspecified)	0.6%	1	0.4	0	-0.2	0
59	CCCCC(=O)Nc1nc2c(OC)ccc(OC)c2s1	9.9%	-4	-0.2	-2	-0.1	-7
60	CC(C)c1nc(SCC(=O)NC2CCCCC2)c2ccccc2n1	-0.3%	3	-1.5	-18	0.0	13
61	CCN(CC)S(=O)(=O)c1ccc(NC(=O)COc2nc3ccccc3nc2N2CCOCC2)cc1	0.2%	-9	-2.5	-30	1.6	-7
62	CCN1C(=O)/C(=C/c2ccc(C)s2)SC1=Nc1ccc(OC)cc1	3.4%	7	-4.7	-2	-0.3	-29
63	CC1(C)CC(=O)C(C(c2cccnc2)C2C(=O)CC(C)(C)CC2=O)C(=O)C1	0.8%	-9	-1.3	-4	0.3	4
64	COC(=O)c1c(C)oc(C)c1S(=O)(=O)NC(C)(C)C	-1.7%	-6	2.6	15	1.6	4
65	CCOc1ccc(N(C(=O)c2ccc(Cl)cc2)S(=O)(=O)c2ccc3c(c2)n(C)c(=O)n3C)cc1	5.0%	·	·	30	2.3	·
66	CCOC(=O)N1CCN(C(=S)NC(=O)c2nn(C)cc2Br)CC1	1.2%	15	?	-12	-0.2	4
67	Cc1ccc(Oc2nc(CN3CCOCC3)nc3sc4c(c23)CCC(C)C4)cc1 (stereo unspecified)	13%	-6	-0.3	51	-0.1	-6
68	CCC1(C)N=C(c2ccc3c(c2)OCO3)CC(c2ccccc2O)N1 (stereo unspecified)	1.4%[38.3 µM]	4	1.8	2	0.8	-1
